gsp antag: qHTS for Antagonists of gsp, the Etiologic Mutation Responsible for Fibrous Dysplasia/McCune-Albright Syndrome: qHTS | gsp-mutant cells, cAMP HTRF, 30 min; control for the full effect not named in the record | Potency, µM (series often up to 76.9 µM), for the others: at the top dose activity change, negative = inhibition, hits mostly inhibitors | 0.4% of 340,000 active; active = falling curve of any shape with a large fitted effect; inconclusive = falling curve, mostly with a smaller effect; inactive = flat or rising curve; cell line not stated here;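 further: intracellular cAMP measured with PDE inhibitor Ro 20-1724 present during compound exposure; potency means the concentration at half of the fitted maximal effect; on the % scale 0 is the no-effect control and ±100 the full control effect; nearly all actives have a fitted effect of over 65% in size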
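HTRF cAMP measurement after 30 min RT detection following 30 min, 37C compound treatment alongside […] (added as 300 uM solution) in G418-selected cells seeded at 2000/well and grown 16–24 h.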
TRPV1 potentiator: HTS Assay for Compounds that Act as Potentiators of the Vanilloid Receptor 1; Transient receptor potential cation channel subfamily V member 1 (Homo sapiens), Q8NER1; TRPV1-expressing cells, Fluo-8 calcium influx, capsaicin EC20 potentiation; host cell line not named in the record; control for the full effect not named in the record; potentiation, % at 8.33 µM; 0.02% of 320,000 active; AID 540277, 2011; active means potentiation above 80%; inconclusive means 30% to 80%; inactive means below 30%; further: 0% is about no effect
Target sequence (Q8NER1 whole entry, looked up): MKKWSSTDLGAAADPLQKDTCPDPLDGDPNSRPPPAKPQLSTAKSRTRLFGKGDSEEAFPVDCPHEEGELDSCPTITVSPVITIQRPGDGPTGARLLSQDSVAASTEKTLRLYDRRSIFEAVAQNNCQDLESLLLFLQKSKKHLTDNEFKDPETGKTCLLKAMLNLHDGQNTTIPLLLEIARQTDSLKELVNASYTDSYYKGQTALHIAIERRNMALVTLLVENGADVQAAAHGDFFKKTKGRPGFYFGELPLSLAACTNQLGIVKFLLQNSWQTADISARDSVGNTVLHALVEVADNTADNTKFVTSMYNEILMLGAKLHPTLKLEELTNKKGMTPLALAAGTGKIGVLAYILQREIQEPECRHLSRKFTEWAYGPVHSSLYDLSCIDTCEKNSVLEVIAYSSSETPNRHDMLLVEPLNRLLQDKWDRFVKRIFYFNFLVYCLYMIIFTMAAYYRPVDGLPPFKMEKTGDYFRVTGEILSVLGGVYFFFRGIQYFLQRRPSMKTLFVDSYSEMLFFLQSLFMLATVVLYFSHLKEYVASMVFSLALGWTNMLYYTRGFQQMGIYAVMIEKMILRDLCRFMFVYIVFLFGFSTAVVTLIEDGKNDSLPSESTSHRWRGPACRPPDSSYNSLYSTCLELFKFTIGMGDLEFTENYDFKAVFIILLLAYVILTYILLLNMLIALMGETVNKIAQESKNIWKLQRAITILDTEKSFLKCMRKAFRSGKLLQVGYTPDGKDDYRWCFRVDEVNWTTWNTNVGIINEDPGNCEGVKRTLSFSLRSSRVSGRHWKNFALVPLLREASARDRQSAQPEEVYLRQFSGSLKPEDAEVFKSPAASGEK
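Cells expressing TRPV1 were dye-loaded with Fluo-8 and read kinetically: 10 s baseline, 3 min after compound (agonist portion), then 2 min after EC20 capsaicin (allosteric enhancer portion). Calcium-bound dye fluorescence at 480/520 nm.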
gsp agonist: qHTS for Agonist of gsp, the Etiologic Mutation Responsible for Fibrous Dysplasia/McCune-Albright Syndrome: qHTS. gsp mutant cells, cAMP HTRF, 30 min; control for the full effect not named in the record. Potency, µM (series often up to 76.9 µM), without a hit: at the highest dose activation (cAMP increase), most hits filed as activators. 0.13% of 340,000 active; active = well fitted activation curve with a large enough effect; inconclusive = small, poorly fitted or top-dose-only effect, or another doubt; inactive = no such curve, though single readings can be large or run the other way; cell line not stated here;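 further: phosphodiesterase inhibitor Ro 20-1724 added with compounds to block cAMP breakdown; potency means the concentration at half of the fitted maximal effect; nearly all actives have a fitted effect of over 60% in size; about a fifth of the inactives were tested at one dose only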
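Cells stably selected in G418 were plated at 2000/well, grown 16-24 hr, then given compounds in DMSO with the PDE inhibitor […] (300 uM solution added) for 30 min at 37C; cAMP was read by HTRF.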
Sfp inh: qHTS Assay for Inhibitors of Bacillus subtilis Sfp phosphopantetheinyl transferase (PPTase); 3.5% of 310,000 active; 4'-phosphopantetheinyl transferase ffp (Bacillus subtilis), Q9F4F7; Biochemical Sfp PPTase activity, qHTS; AID 1490, 2009; Potency, µM, inactives show max response, negative = inhibition, actives largely listed as inhibitors; active means well fitted inhibition curve with a large enough effect; inconclusive means small, poorly fitted or top-dose-only effect, or another doubt; inactive means no such curve, though single readings can be large or run the other way;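 further: the enzyme is Sfp with the accession as filed and its product quenches rhodamine fluorescence; potency means the concentration at half of the fitted maximal effect; 0% = enzyme reaction without inhibitor and -100% = no enzyme wells; top concentration of the series not given in the record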
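Sfp 15 nM + cpd, 15 min RT; start w/ rhodamine-CoA 5 uM, BHQ-2-YbbR 12.5 uM (final); 50 mM Hepes pH 7.6, 10 mM MgCl2, 0.01% NP-40, 0.01% BSA; read 525/598 nm at 0 and 30 min.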
Menin MLL FP FL: qHTS Assay for Inhibitors Targeting the Menin-MLL Interaction in MLL Related Leukemias: Competition With Fluorescein Labeled MLL-derived Peptide; 290,000 tested, under 10 active; Fluorescence polarization, fluorescein-MLL peptide displacement from menin; FP activity change, % at 61.4 µM; inconclusive = falling polarisation curve, or a change in total fluorescence; inactive = total fluorescence flat and polarisation flat or rising; no compound was filed as active; the % refers to the polarisation; negative = inhibition;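 further: % of control where 0% means no effect; inhibitors lower the polarisation; unlabelled MLL peptide was the positive control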
ClpP mod: qHTS Assay for Activators of ClpP | ATP-dependent Clp protease proteolytic subunit (Bacillus subtilis (strain 168)), P80244 | purified B. subtilis ClpP, FRET peptide cleavage, 20 min | Potency, µM (top dose mostly 57.5 µM), for the others: at the highest dose activity change, negative = active | 1.9% of 340,000 active | AID 651965, 2013; active = well fitted falling curve with a large enough effect; inconclusive = small, poorly fitted or top-dose-only effect; inactive = no such curve, though single readings can be large or run the other way; further: potency means the concentration at half of the fitted maximal effect; the source files actives as falling curves though it sought activators and does not explain the sign; nearly all actives have a fitted effect of over 65% in size; many hits overshoot -100%
Target sequence (P80244 whole entry, looked up): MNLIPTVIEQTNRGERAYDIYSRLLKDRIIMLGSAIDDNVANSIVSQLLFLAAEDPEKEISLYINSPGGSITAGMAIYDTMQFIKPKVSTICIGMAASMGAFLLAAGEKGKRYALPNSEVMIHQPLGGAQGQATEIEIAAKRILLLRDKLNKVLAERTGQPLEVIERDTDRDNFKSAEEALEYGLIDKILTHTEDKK
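ClpP 10 microg/mL final, pH 8 Tris/KCl buffer with BSA, glycerol, Tween-20; compound pinned in; FRET-FV substrate; RT 20 min; Ex320/Em430; ΔFRET vs ADEP 5.8 microM, DMSO, no enzyme.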
D2 potentiator: Beta-Arrestin HTS for Positive Allosteric Modulators of the Human D2 Dopamine Receptor: Potentiators; DiscoveRx D2 beta-arrestin cells, luminescence, 90 min; 100% = 57 uM dopamine signal; potentiation, % (no concentration beside the values); 0.23% of 360,000 active; active = potentiation of 50% or more; inconclusive = 30% to 50%; inactive = 30% or less;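 further: compound concentration not given in the record; tested on top of an EC20 dose of dopamine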
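PathHunter D2 cells, attached overnight at 37 deg C, received compound in DMSO plus dopamine at EC20 (50 nM final) for 90 min at 37 deg C. Beta-arrestin recruitment was read as luminescence after 1 h with detection reagent at ambient temperature.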
Starred values were filed as active, the others as inactive; ? = inconclusive; / = no result given; [ ] = dose if it differs, or a comment. The order is random. Share with any hit: about 5.1%.

SMILES | gsp antag | TRPV1 potentiator | gsp agonist | Sfp inh | Menin MLL FP FL | ClpP mod | D2 potentiator
Cc1ccc(S(=O)(=O)NN=C2CCC(C(C)(C)C)CC2)cc1[N+](=O)[O-] (stereo unspecified) | ? | -15 | 29% | -8% | -1.1 | -1.9% | -14
CC(=O)Nc1cccc(NC(=O)C(F)(F)F)c1 | 8% | 9 | 3% | 12% | 5.1 | / | 2
COc1ccc2c(c1)c1nnc(SCC(=O)NC3CC3)nc1n2C | -4% | 24 | -10%[15.4 µM] | -3% | -1.7 | / | -10
O=C(Nc1ccc(NC(=O)C2CC2)nc1)c1ccncc1 | 3% | -2 | 11% | 8% | -2.0 | -0.5% | -5
CCOC(=O)NNc1ccccc1 | -13% | -1 | -26%[15.4 µM] | 10% | 3.1 | / | -3
CC1(C(=O)NC2CCCC2)CCC(=O)N1Cc1cccs1 (stereo unspecified) | 8% | -10 | -62%[inhibitor] | 21% | -4.3 | -0.2% | 2
Cc1cc(C)c(S(=O)(=O)c2ccccc2)c(=O)[nH]1 | 6% | 17 | -4% | 2% | ? | / | 6
CC(C(=O)Nc1ccc(S(N)(=O)=O)cc1)N1CCc2ccccc21 (stereo unspecified) | 11% | 17 | 5%[15.4 µM] | 4% | -3.3 | / | 4
O=c1oc(-c2cccc(Cl)c2)nc2c1cnn2-c1ccccc1 | -4% | -14 | 5% | 22% | 1.3 | ? | 1
COc1ccc(-c2csc(N3CCN(C(=O)c4ccccc4)CC3)n2)cc1 | 35µM* | 3 | -32%[inhibitor] | -22% | 0.4 | -3.2% | -10
O=C(Nc1cccc(C(F)(F)F)c1)c1cnccn1 | -1% | -9 | 9%[15.4 µM] | 13% | -4.9 | / | -8
C#CCOc1ccc(/C=C2/C(=O)ON=C2C)cc1Cl | 0% | -5 | -26% | ? | -10.0 | / | -3
O=C(NCc1ccccn1)C1CCCN(S(=O)(=O)c2cc(Cl)ccc2Cl)C1 (stereo unspecified) | ? | / | -2%[15.4 µM] | / | / | / | 4
O=C(O)c1cccc2cccc(-c3c4ccc(=O)c(O)c-4oc4c(O)c(O)ccc34)c12 | -4% | / | 4% | / | / | -29% | -4
Cc1c(C(=O)N(CCO)Cc2ccccc2)oc2c(F)cccc12 | -7% | -11 | -6% | 11% | -0.4 | -1.6% | -2
CCOc1ccc(C(=O)Nc2ccccc2-c2ccccc2)cc1Cl | -15% | -13 | -44% | -15% | 0.9 | -12% | -6
O=C1C=C(c2cccs2)CC(c2cccs2)C1n1cnc([N+](=O)[O-])c1 (stereo unspecified) | -17% | 21 | 0% | 0% | 2.1 | -19% | 1
Oc1ccc(C=NNC(=S)Nc2ccc(F)cc2)c(O)c1 | -7% | / | ? | / | / | / | -5
COc1ccc(N=C2CCCN2CC(N)=O)cc1 | 7% | 2 | 0% | 24% | 0.8 | -1.0% | 6
CC(=O)c1c(C)cc(C)c(CSc2nc(C)cc(=O)[nH]2)c1C | ? | -12 | 4% | -17% | 3.2 | -0.6% | 2
CCN1C(=O)[C@@H]2[C@@H](c3ccc(-c4ccc(F)cc4)cc3)N3CCCC[C@@]3(C(=O)OC)[C@@H]2C1=O | -2% | ? | / | / | / | -1.2% | -7
O=C(NCC1CCCO1)/C(=C\c1cccs1)NC(=O)c1ccccc1 (stereo unspecified) | / | -9 | 9%[15.4 µM] | 10% | -1.7 | / | -17
Cc1ccc2cc(S(=O)(=O)NCCC(=O)O)ccc2c1 | -7% | -4 | 0% | 5% | 16 | -3.2% | -7
CN(C)c1ncc(S(=O)(=O)c2ccccc2)c(-c2ccccc2Cl)n1 | -24% | -7 | 8% | 5% | 3.0 | -3.0% | -10
O=S(=O)(Nc1nc2ccccc2s1)c1ccc(Br)s1 | -39% | 8 | -33%[inhibitor] | 11% | 2.4 | 0.4% | -2
NNC(=O)c1ccc2nc(-c3ccc(Br)cc3)cn2c1 | -12% | 0 | 14%[15.4 µM] | 24% | -1.6 | -1.8% | 6
COc1ccc([C@H]2CC(=O)C=C(c3ccc(Oc4ccccc4)cc3)C2)cc1OC | -13% | 0 | / | / | / | 0.1% | 1
COc1ccc(C(=O)CSc2nccn2C)cc1 | 4% | 7 | -24%[15.4 µM] | 56µM* | 0.9 | / | 0
COc1cc2nc(NC(=O)c3ccc(F)cc3Cl)sc(=O)c2cc1OC | -20% | 3 | -4% | -19% | 5.0 | -4.0% | -9
COC(=O)CCN1CCc2cc(N=Nc3ccc([N+](=O)[O-])cc3)ccc21 | -1% | -1 | 5%[15.4 µM] | 6% | -0.9 | -2.8% | -25
Cc1c(C(=O)NCCc2ccccc2)oc2ccccc12 | -3% | -5 | 47% | -1% | 0.4 | / | 0
CN(c1ccc(C(=O)NCCSCc2ccco2)cc1)S(C)(=O)=O | 5% | -13 | 7% | 35µM* | 2.0 | 1.3% | -1
CCOC(=O)N1CCN(Cc2nc(CC3CC3)no2)CC1 | 9% | -2 | 1% | 3% | -6.2 | / | -2
O=C1CN(C(=O)CCCc2c[nH]c3ccccc23)c2ccccc2N1 | -5% | -11 | 18% | 12% | -1.2 | -4.0% | -17
Cc1cc(C)cc(OCC(=O)OCC(=O)NC2CCCC2)c1 | 1% | 20 | 1% | / | / | 1.4% | -3
COc1ccc(Nc2ncc(C(=O)N3CCN(Cc4ccccc4)CC3)c3ccccc23)cc1 | -14% | -17 | -5% | -2% | 4.4 | 5.5% | -5

Fetched one by one from above, two records:
SMILES | gsp antag | TRPV1 potentiator | gsp agonist | Sfp inh | Menin MLL FP FL | ClpP mod | D2 potentiator
Cc1cc(C)c(S(=O)(=O)c2ccccc2)c(=O)[nH]1 | 6% | 17 | -4% | 2% | ? | / | 6
CC(C(=O)Nc1ccc(S(N)(=O)=O)cc1)N1CCc2ccccc21 (stereo unspecified) | 11% | 17 | 5%[15.4 µM] | 4% | -3.3 | / | 4

More results follow.
SMILES | gsp antag | TRPV1 potentiator | gsp agonist | Sfp inh | Menin MLL FP FL | ClpP mod | D2 potentiator
COC(=O)CN(n1cnnc1)S(=O)(=O)c1ccc(C)cc1 | -2% | 4 | -9% | -2% | -0.7 | 1.3% | -3
CC1=C(C)CC(C(=O)N2CCN(Cc3ccccc3)CC2)C(C(=O)O)C1 (stereo unspecified) | -5% | 0 | -42%[inhibitor] | -1% | -2.4 | 7.2% | -23
COc1cccc(NC(=O)C(=O)NCCCn2ccnc2)c1 | 1% | 15 | 9%[15.4 µM] | -4% | -1.2 | / | 2
O=C(O)c1ccc2c(=O)n(Cc3ccccc3)c(SCc3ccc([N+](=O)[O-])cc3)nc2c1 | ? | -3 | ? | 10% | 1.3 | 0.4% | 3
O=C(c1cc(-n2cnnc2)ccc1Cl)N1CCN(c2nc(-c3ccccc3)cs2)CC1 | ? | 6 | -4% | 17% | 2.2 | -1.1% | -2
CCn1nc(C)c(NS(=O)(=O)c2ccccc2)c1C | -5% | 3 | -31%[inhibitor] | 15% | 0.0 | -1.2% | 5
CCCn1nnnc1NC(=O)COc1ccc(Cl)c(C)c1 | 3% | 4 | 1% | 19% | 2.4 | -15% | -7
COc1cccc(C(=O)NCCS(=O)(=O)N2CCCCCC2)c1 | 10% | -1 | 7% | / | / | -5.6% | 7
Cc1ccc(N=C2NC(=O)c3cc([N+](=O)[O-])ccc32)cc1 | -3% | 2 | -17% | -14% | -2.7 | -2.0% | 10
O=C(NCc1ccc(Cl)cc1)c1cnccn1 | 6% | 9 | 3% | 13% | -0.4 | -0.5% | -1
CCOC(=O)c1cccc(-n2c(C)cc(C=O)c2C)c1 | -9% | 11 | ? | 6% | 0.9 | 1.4% | 22
Cc1ccc(NC(=O)CCc2nnc3ccc(NCc4ccco4)nn23)cc1F | -7% | ? | 15% | -1% | 5.2 | -1.8% | -8

Record cards, as listed above. Screens in order: gsp antag, TRPV1 potentiator, gsp agonist, Sfp inh, Menin MLL FP FL, ClpP mod, D2 potentiator
Entry for `CC1=C(C)CC(C(=O)N2CCN(Cc3ccccc3)CC2)C(C(=O)O)C1` (stereo unspecified) : -5%, 0, -42%[inhibitor], -1%, -2.4, 7.2%, -23
Entry for `CCOc1ccc(C(=O)Nc2ccccc2-c2ccccc2)cc1Cl` : -15%, -13, -44%, -15%, 0.9, -12%, -6

The list goes on.
SMILES | gsp antag | TRPV1 potentiator | gsp agonist | Sfp inh | Menin MLL FP FL | ClpP mod | D2 potentiator
Cc1ccc(S(=O)(=O)CCC(=O)Nc2nnc(-c3ccc(F)cc3)o2)cc1 | -18% | 2 | ? | / | / | ? | -15
O=C(NCc1ccc(Cl)cc1)C1CCN(S(=O)(=O)c2cccc3nonc23)CC1 | 1% | -21 | -38% | 12% | / | -0.9% | -4
Brc1ccc(OCc2nc3ccccc3[nH]2)cc1 | 1% | -5 | 17% | 20% | 2.9 | 2.1% | -2
CCOc1ccc(NS(=O)(=O)c2ccc(OCC(=O)N3CCCC3)cc2)cc1 | 1% | 5 | 11% | 12% | 0.8 | -2.4% | 3
CCOC(=O)c1[nH]c2cc3c(cc2c1NC(=O)CN1CC(C)CC(C)C1)OCO3 (stereo unspecified) | -3% | -9 | -37%[15.4 µM] | 4% | 3.3 | 1.8% | -12
O=C(COC(=O)COc1cccc(Br)c1)NCc1ccc2c(c1)OCO2 | 13% | / | -1%[15.4 µM] | / | / | 0.7% | -10
CCN1CCN(c2ccc(S(=O)(=O)N3CCOCC3)cc2NC(=O)CC(C)C)CC1 | 8% | -5 | 23% | / | / | -0.5% | -3
CCOc1ncccc1C(=O)Nc1ccc2c(c1)OCCO2 | -3% | / | 14% | / | / | / | -3
